Screening data deposited in PubChem BioAssay by Johns Hopkins Ion Channel Center.
KCNQ2 pot: potentiators of rat KCNQ2 potassium channel; 0.54% of 310,000 active; O88943; CHO-K1 KCNQ2, FluxOR thallium flux fluorescence; hits give high values; B-score at 10 µM; AID 2239;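 active means fluorescence ratio B-score at least 3 SD of library B-scores, with initial fluorescence B-score within 3 SD, cut at about 5.3 in these data; same plate scores as AID 2156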;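 further: B-score of peak minus minimum over baseline fluorescence ratio after K+ and Tl+ stimulus; positive B-score means potentiation of KCNQ2 with more thallium influx and brighter signal; only the inactives scoring about 0 or higher are listed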
Target sequence (O88943 whole entry, looked up): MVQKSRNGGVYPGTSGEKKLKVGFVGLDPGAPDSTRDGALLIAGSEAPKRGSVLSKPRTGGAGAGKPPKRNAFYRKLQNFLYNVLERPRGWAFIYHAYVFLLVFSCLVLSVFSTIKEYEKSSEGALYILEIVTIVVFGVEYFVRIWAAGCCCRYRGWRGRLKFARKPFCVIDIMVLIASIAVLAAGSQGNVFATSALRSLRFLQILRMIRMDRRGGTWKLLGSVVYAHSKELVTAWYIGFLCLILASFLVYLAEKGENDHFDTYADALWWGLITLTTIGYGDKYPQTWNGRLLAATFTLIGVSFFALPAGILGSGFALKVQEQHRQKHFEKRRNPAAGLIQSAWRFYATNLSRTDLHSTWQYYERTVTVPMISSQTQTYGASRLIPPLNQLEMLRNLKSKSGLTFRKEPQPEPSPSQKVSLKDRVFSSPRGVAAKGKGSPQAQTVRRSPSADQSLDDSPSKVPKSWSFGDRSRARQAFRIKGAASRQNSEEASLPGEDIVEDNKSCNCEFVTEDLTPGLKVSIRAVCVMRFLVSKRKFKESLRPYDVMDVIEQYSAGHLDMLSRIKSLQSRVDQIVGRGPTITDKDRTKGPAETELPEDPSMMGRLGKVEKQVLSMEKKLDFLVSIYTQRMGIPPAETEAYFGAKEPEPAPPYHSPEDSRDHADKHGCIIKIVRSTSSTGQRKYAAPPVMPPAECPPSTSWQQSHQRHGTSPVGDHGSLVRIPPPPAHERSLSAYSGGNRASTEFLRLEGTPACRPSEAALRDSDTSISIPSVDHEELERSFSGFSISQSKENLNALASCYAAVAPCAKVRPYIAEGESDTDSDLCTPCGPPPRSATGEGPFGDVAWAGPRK
KCNQ2 pot baseline: also measured in KCNQ2 pot; calls as there; B-score; compound at 10 µM; measured here: initial fluorescence intensity artifact check;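 brightness before thallium and not channel activity; 0 = typical well and far values either way flag optical interference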
* hit, by the source's call. Not all compounds are listed (hit frequency here may not be typical).

SMILES	KCNQ2 pot	KCNQ2 pot baseline
O=C(CN1CCC(NC(=O)c2ccc(F)cc2)CC1)NCc1ccccc1F	0.58	0.07
CC(C)(C)OC(=O)N1Cc2ccccc2C[C@H]1C(=O)O	0.63	-0.19
COc1cccc(C(=O)Nc2c3c(nn2-c2ccccc2C)CS(=O)C3)c1OC (configuration not stated)	0.42	0.03
O=C1C2C3C=CC(CC3)C2C(=O)N1c1ccccc1F (configuration not stated)	0.41	-1
Cc1nc(NC(=O)c2ccc(Br)o2)ccc1Br	0.99	-1.4
O=C(NCCCN1CCOCC1)c1cccc(S(=O)(=O)N2CCN(c3ccccc3)CC2)c1	0.47	0.29
COC(=O)c1cccc(N2C(=O)C3C4C=CC(CC4)C3C2=O)c1 (configuration not stated)	0.96	-0.38
O=S(=O)(NCc1ccc2c(c1)OCO2)c1ccc(F)cc1	0.26	-0.49
CC(=O)c1ccc(NC(=S)NC(=O)/C=C/c2ccccc2)cc1	0.63	-0.11
O=C(Nc1nnc(-c2ccco2)o1)c1ccc(Cl)s1	0.03	-1.7
O=C(Nc1ccccc1)Nc1nnc(Cc2ccccc2F)s1	0.6	0.43
CN(C)CCCN(Cc1ccccc1)C(=S)Nc1cccc(C(F)(F)F)c1	0.26	-0.4
CC(C)c1ccc(NC(=O)C2CCCN(S(=O)(=O)c3cccnc3)C2)cc1 (configuration not stated)	0.47	-0.03
COc1ccc(NC(=O)CSc2nnc(-c3ccccc3F)n2C2CC2)cc1S(N)(=O)=O	0.41	-0.01
O=C(C1CCN(S(=O)(=O)c2ccccc2)CC1)N1CCOCC1	0.88	1.1
CCc1sc(C(=O)Nc2cccnc2)cc1Br	3	-0.11
CCOC(=O)N1CCN(C(=O)CN(c2ccc(OC)c(OC)c2)S(C)(=O)=O)CC1	1.6	0.2
O=C(O)CCN1C(=O)S/C(=C\c2cccnc2)C1=O	2.3	0.02
O=C(CNc1cc(S(=O)(=O)N2CCOCC2)ccc1NCC1CCCO1)Nc1cccc(F)c1 (configuration not stated)	0.41	-0.39
COc1ccc(NC(=O)C2CCCN(c3ncccn3)C2)cc1 (configuration not stated)	1.1	1.2
O=C(NCc1ccco1)C1CCCN1C(=O)Nc1ccccc1 (configuration not stated)	1	-0.25
COc1ccccc1N1C(=O)c2ccccc2NC1C(OC)OC (configuration not stated)	0.19	1.9
O=C(c1ccc(S(=O)(=O)N2CCOCC2)cc1)N1CCN=C1SCc1cccnc1	0.07	1.1
CCCCN(C)CCCNC(=O)/C=C1\Sc2ccccc2NC1=O	0.24	0.84

4 consecutive compounds out of the list so far, quoted:
SMILES	KCNQ2 pot	KCNQ2 pot baseline
O=C(NCc1ccco1)C1CCCN1C(=O)Nc1ccccc1 (configuration not stated)	1	-0.25
COc1ccccc1N1C(=O)c2ccccc2NC1C(OC)OC (configuration not stated)	0.19	1.9
O=C(c1ccc(S(=O)(=O)N2CCOCC2)cc1)N1CCN=C1SCc1cccnc1	0.07	1.1
CCCCN(C)CCCNC(=O)/C=C1\Sc2ccccc2NC1=O	0.24	0.84

Entries shown so far that have a thiophene ring, fused or not, in the order listed:
SMILES	KCNQ2 pot	KCNQ2 pot baseline
O=C(Nc1nnc(-c2ccco2)o1)c1ccc(Cl)s1	0.03	-1.7
CCc1sc(C(=O)Nc2cccnc2)cc1Br	3	-0.11

Going on with the list.
SMILES	KCNQ2 pot	KCNQ2 pot baseline
O=C(O)C1CCN(C(=O)CCc2ccccc2)CC1	0.22	-1.3
COc1ccccc1CNC(=O)CCS(=O)(=O)c1cccs1	1.6	0.18
O=C(OCC(=O)c1c[nH]c2ccccc12)c1cccc(S(=O)(=O)N2CCCCCC2)c1	8.8*	-2.8*
O=C(NC(=S)Nc1ccc(NC(=O)c2cccs2)cc1)c1ccc([N+](=O)[O-])cc1	0.18	0.26
CCN(CC(=O)N1CCOCC1)S(=O)(=O)c1ccc(F)cc1	1.4	1.3
Cc1cc(N2CCC(C)CC2)nc(SCC(=O)c2ccccc2)n1	1.3	-0.11
COc1ccc([N+](=O)[O-])cc1N(CC(O)CN1CCCC1)S(=O)(=O)c1ccc(C)cc1 (configuration not stated)	0.56	-1.3
Cc1nc(SCC(=O)NC(=O)NCCC(C)C)c2c(-c3cccs3)csc2n1	0.13	0.63
Cn1cc(CCC(=O)NC2CC2)c2ccccc21	0.77	-1.1
CCOc1cccc2c1OC1(CCCCC1)N1N=C(c3cccnc3)CC21 (configuration not stated)	0.42	2
O=C(O)CCCN1C(=O)C2C3CCC(O3)C2C1=O (configuration not stated)	0.11	0.62
Cc1ccc(C(=O)N2CCN(c3ccc(NC(=O)c4cccnc4)cc3)CC2)cc1	1.4	1.1

4 of the compounds above, with values ahead of the structure.
| KCNQ2 pot | KCNQ2 pot baseline | mol |
| --- | --- | --- |
| 0.18 | 0.26 | O=C(NC(=S)Nc1ccc(NC(=O)c2cccs2)cc1)c1ccc([N+](=O)[O-])cc1 |
| 1.4 | 1.3 | CCN(CC(=O)N1CCOCC1)S(=O)(=O)c1ccc(F)cc1 |
| 1.3 | -0.11 | Cc1cc(N2CCC(C)CC2)nc(SCC(=O)c2ccccc2)n1 |
| 0.56 | -1.3 | COc1ccc([N+](=O)[O-])cc1N(CC(O)CN1CCCC1)S(=O)(=O)c1ccc(C)cc1 (configuration not stated) |

Next section.
SMILES	KCNQ2 pot	KCNQ2 pot baseline
O=C(CN1C(=O)c2cccc3cccc1c23)NCc1ccccn1	0.22	0.14
Cc1nc(SCC(=O)NCc2ccco2)c2oc3ccccc3c2n1	0.05	-0.02
COc1cccc(NC(=O)c2ccc(-n3cccn3)nc2)c1	1.6	0.68
O=C(CN1C(=O)COc2ccc(S(=O)(=O)N3CCCC3)cc21)NCc1ccccn1	1.7	-2.2
CN(C)S(=O)(=O)c1cccc(C(=O)OCC(=O)NCc2ccccc2)c1	0.58	1.3
CCCCn1c(N)c(N(CCOC)C(=O)c2oc3ccc(OCC)cc3c2C)c(=O)[nH]c1=O	1.2	-0.08
CCOc1ccccc1NC(=O)Cn1[nH]c(=O)c2ccccc2c1=O	1.4	0.22
Fc1ccc(-n2nnnc2-c2ccccc2Cl)cc1	0.83	-0.2
O=S1(=O)CC(O)C(N(CCO)C(=S)Nc2ccccc2)C1 (configuration not stated)	0.58	0.33
CCOC(=O)c1cnc2c(Cl)cc(Cl)cc2c1NCCOCCO	0.39	-0.74
N#CCSc1nnc2c(Cl)cc(Cl)cn12	0.02	-0.62
CCc1cc(SC#N)cc(C)c1NC(=O)CCl	11*	-0.1*
Cc1ccc(NN=C2C(=O)OC(C)(C)OC2=O)c(C)c1	0.44	-1.7
COc1ccc(-c2cnc3nc[nH]c(=O)c3n2)cc1	1.4	-0.81
CCCN1CCN(CCCNC(=O)c2ccc(CS(=O)c3ccc(OC)cc3)o2)CC1 (configuration not stated)	0.33	0.04
COc1ccc(-c2csc(Cc3nnc4n3CCCCC4)n2)cc1OC	0.4	-1.1
COc1ccc(CC(=O)OCC(=O)NCc2ccco2)cc1OC	1.2	0.61
COC(=O)C1=Cc2cc(OC)cc([N+](=O)[O-])c2OC1N1CCOCC1 (configuration not stated)	1.1	0.72
Cc1ccc(-c2nc(N)sc2-c2ccccc2)cc1C	0.84	-0.73
O=S(=O)(c1ccc(Br)c2nsnc12)N1CCOCC1	0.06	-3.6
Cc1nn(Cc2ccccc2)c(Cl)c1C(=O)OCc1nnc(-c2ccccc2)o1	0.79	-2.7
OC(COCc1ccc2c(c1)OCO2)CN1CCC(Cc2ccccc2)CC1 (configuration not stated)	0.31	-0.37
CCOc1ccccc1-n1c(SCC(=O)NC(C)(C)C)nnc1-c1ccoc1C	0.96	-0.72
Cc1ccc(CNC(=O)CCS(=O)(=O)c2cc(Br)cc3c2N(C(=O)C2CC2)CC3)o1	1.4	0.81
Cc1nc(-c2ccccc2)cs1	1.3	0.71
CN1CCN(C(CNC(=O)C(=O)NC2CCCCC2)c2ccc(F)cc2)CC1 (configuration not stated)	1.1	0.11
CCCOC(=O)CSc1nc(N2CCOCC2)c2c(c1C#N)CC(C)(C)OC2	2.5	-0.56
CCn1cc(/C=N\NC(=O)C2(C)CC2(Cl)Cl)c(C)n1 (configuration not stated)	0.64	0.21
CCc1cc(C(=O)NNC(=O)CCl)sc1C	0.24	1.8
O=C(Nc1cccc(O)c1)C1CC(c2cccc(Br)c2)=NO1 (configuration not stated)	0.09	-0.46
COCCN(C(=O)CSc1nnc(-c2ccc(Cl)cc2)o1)c1c(N)n(CC(C)C)c(=O)[nH]c1=O	0.67	1.3
CCCCCCCCn1cnc2c(N)c(C)c(C)cc21	1.9	0.76
O=c1oc(-c2cccnc2)nc2ccccc12	0.86	0.39
CC(=O)C(C(C)=O)C1(O)C(=O)c2ccccc2C1=O	1.9	-1.8
Cc1cccc(-n2c(=S)[nH]c3sc4c(c3c2=O)CCc2ccccc2-4)c1	5.6*	1.1*
Cc1ccc(C(=O)N2CCCC(Nc3cccc(F)c3)C2)cc1N1CCNC1=O (configuration not stated)	0.15	0.72
O=C(NNC(=O)c1ccccc1F)c1cccs1	0.67	0.16
S=C1NCN(Cc2cccnc2)CN1Cc1ccccc1	0.75	-0.64
CC(=O)Nc1ccc(Nc2nc(-c3sc(NC(C)=O)nc3C)cs2)cc1	0.01	-0.97
COc1ccc(NC(=O)CCCn2c(=O)oc3ccccc32)cc1Cl	1.6	0.21
CCCNS(=O)(=O)c1ccc(OCC(=O)NCCC2=CCCCC2)cc1	1.4	-0.03
O=C(/C(=C(\O)c1ccccc1)c1nc2ccccc2[nH]1)c1ccccc1	0.2	2.4
Cc1nn(-c2ccccc2)nc1C(=O)Oc1cc(C(F)(F)F)nn1-c1ccccc1	0.1	-0.08
O=C(NC1CCN(Cc2ccccc2)CC1)c1cccc(OC(F)F)c1	0.15	1.2
O=c1c2[nH]c3ccc(F)cc3c2nc2n1CCS2	0.91	-0.48
CCN(CCCNC(=O)C1CCN(S(=O)(=O)c2cnc[nH]2)CC1)c1cccc(C)c1	2.4	-2.4
O=C(NCc1ccc(Cl)c(Cl)c1)C1CCCC1	1.9	0.59
Clc1ncnc2scc(C3COc4ccccc4O3)c12 (configuration not stated)	0.78	-0.4
O=C1NC[C@@H](Cc2cccc3ccccc23)N(CC2CCCCC2)C1=O	1.3	-1.1
CC(=O)Oc1ccc(C(=O)Nc2ccccc2C(=O)N2CCCC2)cc1	0.55	0.33
CCOC(=O)Cc1csc(SCC(=O)c2c(N)n(CC(C)C)c(=O)n(C)c2=O)n1	0.19	-0.28
O=C(CN1C(=O)c2ccccc2S1(=O)=O)N1CCc2ccccc2C1	0.16	-0.26
Cc1cc(C)c(-c2cc(C(F)(F)F)no2)c(=O)[nH]1	0.05	0.56
CCCC1CCC(=NNC(=O)CNc2ccc(OC)cc2)CC1 (configuration not stated)	2	-1.2
CSc1ccccc1NS(=O)(=O)c1cccc2nonc12	1	1.7
COc1ccc(Nc2nc(Nc3ccc(OC)cc3)nc(-n3[nH]c(=O)c(C)c3C)n2)cc1	1.1	-0.45
CC(C)(C)c1ccc(C(=O)NCC(=O)OCC(=O)Nc2nc(-c3ccc(F)cc3)cs2)cc1	0.33	-2.3
Cc1ccc2nc(NC(=O)c3ccc4c(c3)OCO4)sc2c1	0.64	-0.08
COc1ccc(C(=O)OCC(=O)NC2CCCC2)c(OC)c1	0.29	0.05
CCC(C)(C)NC(=O)Cc1ccc(Cl)cc1	0.53	-0.71
The list goes on:
SMILES	KCNQ2 pot	KCNQ2 pot baseline
COc1ccc(OC)c(NC(=O)CSc2nnc(CNC(=O)c3ccco3)o2)c1	0.02	-0.1
CN(C)S(=O)(=O)c1cccc(C(=O)c2nccn2C)c1	0.68	1.4
COc1ccc(CNC(=O)CN(C(=O)c2cc3sccc3n2C)C2CCCC2)cc1	1.9	-2
CCNS(=O)(=O)c1ccc(CCC(=O)Nc2cc(Cl)ccc2Oc2ccccc2)cc1	0.08	0.67
O=C(Nc1ccc(Cl)cc1)Nc1cnccn1	0.6	-0.44
O=C(CSc1nnc(NC(=O)c2ccco2)s1)NC1CCCCC1	0.17	-0.5
CC(C)Cc1nnc(NC(=O)CCC(=O)NCc2ccccc2Cl)s1	1.3	-0.11
Cc1cc(C)n2cc(CSCC(=O)O)nc2n1	0.67	0
OCC[C@@H]1C[C@H](O)[C@@H](O)[C@@]2(CCc3ccccc3O2)O1	0.06	-0.2
CCc1ccccc1NC(=O)Cc1ccc(-n2cccc2)cc1	0.65	0.09
Cn1nc(C(=O)Nc2nnc(C3CC3)s2)c2ccccc2c1=O	1.3	-0.67
CC(=O)Oc1ccc(N(C(C)=O)S(=O)(=O)c2ccc(C)cc2)c2ccccc12	1.1	1.3
CCN(CC)C(=O)CSc1nc(O)c(Cc2ccccc2)c(=O)n1-c1ccc(C)cc1	0.07	-1.1
O=C(CN1C2CCC1CC(NC(=O)C1CC1)C2)NCc1ccccc1 (configuration not stated)	0.62	1.3
Cc1cccc(NC(=O)c2ccc(Cn3cc(C(F)(F)F)ccc3=O)cc2)c1	0.55	0.44
Cc1ccccc1NC(=O)CSc1nc2ccc(Nc3nc(N4CCOCC4)nc(N4CCOCC4)n3)cc2s1	0.05	-0.72
COc1cc(C2C(C(=O)Nc3ccccc3OC)=C(C)Nc3ncnn32)ccc1O (configuration not stated)	2	0.07
COc1ccc(C(=O)NCc2cccs2)cc1S(=O)(=O)N1CCOCC1	0.72	0.31
COc1ccc(OCC(=O)N2CCN(S(=O)(=O)c3ccccc3[N+](=O)[O-])CC2)cc1	0.41	-0.02
Cc1cc(C)nc(-n2nc(C)c3c(=O)[nH]c(C(F)(F)F)nc32)n1	3.2	-0.63
CC(=O)Oc1ccc(C(=O)Nc2cccc(NC(=O)c3ccco3)c2)cc1	0.36	0.54
COCc1cc(CNC(=O)C2CCC(=O)N(Cc3ccccc3OC)C2)[nH]n1 (configuration not stated)	0.68	-0.65
